# UCH37 DUB inh: human UCH37 deubiquitinating enzyme inhibition. inhibition, % (test concentration not listed). actives 0.33% (n = 330,000). Q9Y5K5. AID 588478. purified proteasome/UCH37, Ub-AMC cleavage fluorescence;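 active = mean of two replicates above 20%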;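 also: 0% = compound-free wells with enzyme and 100% = wells lacking proteasome; stock transfer was 100 nL into about 20 µL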
#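 Reagent: Ub-AMC substrate; assay system: Proteasome-associated human UCH37 deubiquitinase; controls: no-proteasome and no-compound wells; read-out: % inhibition of Ub-AMC cleavage fluorescence; timing: 30 min preincubation with enzyme, 25 min cleavage at room temperature; signal: AMC fluorescence from Ub-AMC cleavage, excitation 355 nm, emission 460 nm; buffer or medium: Tris-HCl pH 7.4 plus ovalbumin, ATP-MgCl2, DTT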
# Bfl-1 A1 inh: inhibitors of the anti-apoptotic protein A1, read as caspase activation; actives 0.066% (n = 330,000); caspase activation, % (concentration not given with the values); MEF A1-2A-BIM cells, Caspase-Glo 3/7 luminescence, 3 h; percent of clofoctol response, vehicle zero;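 active = over half of replicate activation scores above 10%, or exactly half above 10 with the replicate mean above 10; inconclusive = replicate mean below 10 yet half the replicates above 10; inactive = over half of replicates below 10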;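 also: wells of about 30 µL received 50 nL stock; many hits fall short of the cut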
# Calb FLC: C. albicans growth modulation with fluconazole. C. albicans CaCi-2 (fluconazole-resistant clinical isolate) + fluconazole, Alamar Blue growth, 48 h. growth inhibition, % (test concentration not listed). actives 0.57% (n = 300,000). AID 1979;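 active = most replicates above 75%; inconclusive = exactly half above 75%; inactive = most below 75%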;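 also: all wells also contain fluconazole at 8 µg/ml as a sub-toxic cotreatment; 0% = median of DMSO wells and 100% = median of geldanamycin control wells; wells of about 8 µL received 7.5 nL stock; the first replicate is given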
# RanGTP-Imp inh: inhibitors of RanGTP-importin-beta interaction, primary screen, biochemical, FRET, CFP-Ran, YFP-importin-beta, homogeneous; cell-free CFP-Ran/YFP-importin-beta FRET ratio; inhibition, % (concentration not given with the values); actives 1.1% (n = 300,000); AID 2216;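 active = most replicates above 15%; inconclusive = exactly half above 15%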;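 also: 0% = DMSO wells and 100% = Ran loaded with GDP instead of GTP; wells of about 40 µL received 100 nL stock; the first replicate is given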
# B2AR ag: human beta-2 adrenergic receptor agonism by FAP. Am2.2-beta2AR cells, FAP receptor internalization, flow cytometry; reference of the scale not given here. response, % (no concentration beside the values). actives 0.43% (n = 340,000). AID 504454;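 active = response above a set limit, near 3 SD of response in nonfluorescent compounds, cut at about 42% in these data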;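 also: stock transfer was 100 nL into about 11 µL; a reference agonist was the positive control; negative values mostly stem from fluorescent compounds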
# LANA-H2A inh: blocks KSHV LANA binding to histone H2A/H2B; Q9QR71; cell-free LANA-H2A/H2B peptide, fluorescence polarization; inhibition, % (no concentration beside the values); actives 0.6% (n = 320,000); AID 2629; in the data active = inhibition mostly above about 10%, no sharp cut-off; inactive = mostly below about 6.7%;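 also: stock transfer was 7.5 nL into about 10 µL; 0% = median of vehicle wells and 100% = median of positive control wells; one replicate is shown; the record names a cut of 25% in any replicate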
# Target sequence (Q9QR71 whole entry, looked up): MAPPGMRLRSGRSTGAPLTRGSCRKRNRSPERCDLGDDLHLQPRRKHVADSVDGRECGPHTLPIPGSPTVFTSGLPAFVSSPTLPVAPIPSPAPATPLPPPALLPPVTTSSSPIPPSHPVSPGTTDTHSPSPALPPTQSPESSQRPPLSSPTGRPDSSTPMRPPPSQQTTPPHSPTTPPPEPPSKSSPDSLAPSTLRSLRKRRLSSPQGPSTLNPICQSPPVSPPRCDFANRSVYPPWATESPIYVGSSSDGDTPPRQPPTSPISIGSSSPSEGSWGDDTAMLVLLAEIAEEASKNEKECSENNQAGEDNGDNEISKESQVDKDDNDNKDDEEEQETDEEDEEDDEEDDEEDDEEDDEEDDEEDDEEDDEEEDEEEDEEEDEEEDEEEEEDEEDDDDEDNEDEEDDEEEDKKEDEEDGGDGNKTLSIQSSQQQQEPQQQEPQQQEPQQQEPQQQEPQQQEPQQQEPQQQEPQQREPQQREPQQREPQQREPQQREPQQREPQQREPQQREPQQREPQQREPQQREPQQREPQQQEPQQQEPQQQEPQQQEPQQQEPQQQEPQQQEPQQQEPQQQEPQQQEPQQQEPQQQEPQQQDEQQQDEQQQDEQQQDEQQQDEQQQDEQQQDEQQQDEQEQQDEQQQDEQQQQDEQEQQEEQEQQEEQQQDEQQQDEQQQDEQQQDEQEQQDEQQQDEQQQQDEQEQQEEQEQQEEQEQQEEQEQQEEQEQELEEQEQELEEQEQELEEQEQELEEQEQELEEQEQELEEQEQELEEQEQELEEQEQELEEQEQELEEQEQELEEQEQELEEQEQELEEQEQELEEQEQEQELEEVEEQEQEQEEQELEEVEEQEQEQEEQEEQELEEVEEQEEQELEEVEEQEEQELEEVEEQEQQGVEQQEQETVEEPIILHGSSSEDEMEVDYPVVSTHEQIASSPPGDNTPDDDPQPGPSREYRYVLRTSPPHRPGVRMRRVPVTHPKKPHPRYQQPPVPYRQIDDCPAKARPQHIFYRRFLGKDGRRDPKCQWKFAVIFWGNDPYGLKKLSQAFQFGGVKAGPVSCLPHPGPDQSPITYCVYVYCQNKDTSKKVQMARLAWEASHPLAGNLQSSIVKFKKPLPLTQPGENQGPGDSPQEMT
# T cruzi inh: blocks replication of Trypanosoma cruzi. T. cruzi beta-gal in NIH3T3, luminescence, 90 h. inhibition, % (test concentration not listed). actives 1.4% (n = 300,000). AID 1885;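 active = mean inhibition across valid replicates above about 55%, limit read from the data; inconclusive = mean below that limit but half or more replicates reach it; inactive = mean below it, under half of replicates reach it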;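 also: signal also drops with host cell toxicity which is not excluded here; 0% = plate median of DMSO wells and 100% = zero luminescence signal; higher percent means less beta-gal luminescence so fewer parasites; stock transfer was 50 nL into about 50 µL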
# Beta cell apopt: beta cell apoptosis inhibition. protection from apoptosis, % (concentration not given with the values). AID 435005. INS-1E cytokine-induced death, ATP luminescence, 48 h; percent of positive-control rescue, neutral wells zero. actives 0.8% (n = 300,000);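 active = all replicates at 75% or more, or half of them and the mean; inconclusive = half reach 75% but not the mean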;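 also: 0% = cytokine-treated negative control wells and 100% = positive control rescue; higher means more ATP so stronger rescue from cytokine killing; wells of about 40 µL received 100 nL stock; the first replicate is given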
# * marks the source's active call; other numbers are inactive results; ? = inconclusive; · = not tested or not shown.
no.	SMILES	UCH37 DUB inh	Bfl-1 A1 inh	Calb FLC	RanGTP-Imp inh	B2AR ag	LANA-H2A inh	T cruzi inh	Beta cell apopt
1	CN1C(=O)C(C2c3ccccc3C(=O)N2Cc2ccc([N+](=O)[O-])cc2)C(=O)N(C)C1=O (configuration not stated)	8.5	-0.4	-4.8	-1.1	1.2	-6.7	-7.1	-6.0
2	CC(C(=O)Nc1ccc(Br)cc1C(=O)c1ccccc1)N1CCOCC1 (configuration not stated)	1.9	-1.0	10.6	3.9	11.2	5.6	7.1	-5.9
3	Cc1cc(C)cc(N2C(=O)NC(=O)/C(=C\c3cccn3-c3ccc(Cl)cc3)C2=O)c1	-0.2	1.1	-2.7	2.3	7.7	-1.2	-25.6	-3.7
4	Cc1[nH]c2ccccc2c1C(=O)CN1CC=C(c2ccccc2)CC1	-0.6	-0.4	-14.4	4.2	1.1	-5.1	96.6*	-0.4
5	CCOC(=O)c1c(-c2ccc(OC)cc2)oc2ccc(OC(=O)N(C)C)cc12	-447.4	0.3	-33.5	-0.8	0.9	1.3	18.8	2.5
6	C=C(C)c1cccc(C(C)(C)NC(=O)NC2CN3CCC2CC3)c1 (configuration not stated)	0.3	-0.3	0.5	-0.7	3.0	-1.8	-7.1	·
7	Cc1c(N=Nc2c(O)[nH]c(=S)[nH]c2=O)c(=O)n(-c2ccccc2)n1C	30.2*	0.5	-0.1	-1.6	0.6	-5.1	-6.8	1.1
8	CCC(C)C(NC(=O)CCCNC(=O)CCC(=O)OC1O[C@H]2OC3(C)CC[C@H]4[C@H](C)CCC(C1C)C24OO3)C(=O)O (some centres not stated)	·	2.5	40.7	1.0	5.8	-2.0	8.4	26.9
9	CC(=NCc1cccnc1)c1c(O)n(Cc2ccccc2)c(=O)[nH]c1=O	2.7	0.7	0.0	?	-6.5	2.6	-4.5	-1.3
10	O=C(CN1CCN(S(=O)(=O)c2cccc(Cl)c2)CC1)N1CCCCC1	5.5	0.0	·	·	-8.0	2.4	·	5.8
11	CCn1c(C)c(C(=O)O)c2cc(OC)ccc21	0.4	1.0	-3.7	3.9	1.8	0.6	1.4	0.1
12	Cc1cccc(NC(=S)N2CC3CC(C2)c2cccc(=O)n2C3)c1C (configuration not stated)	1.3	-0.1	-1.3	-0.1	1.5	-3.5	-4.3	-2.8
13	COC(=O)C1=C(c2cccc(OCc3ccccc3)c2)C[C@@H]2CC[C@H]1N2C(=O)NCc1cccc(OC)c1	5.5	-0.5	·	·	-12.3	8.5	·	-6.8
14	CNP(=O)(Oc1ccccc1)OC12CC3CC(CC(C3)C1)C2 (configuration not stated)	3.5	-0.4	-3.7	?	3.7	1.3	-2.4	-3.0
15	COc1ccc(CNCCc2c[nH]c3ccccc23)cc1OC	5.2	1.0	6.2	-2.2	-1.4	0.8	8.2	4.0
16	CCC(=NCc1ccco1)c1c(O)n(-c2ccccc2C)c(=O)[nH]c1=O	3.3	0.7	0.8	13.1	3.3	1.9	10.5	-0.4
17	COc1cc(N2CCOCC2)ccc1/C=C1\C(=O)NC(=O)N(Cc2cccs2)C1=O	1.3	1.0	-2.9	1.9	6.2	1.7	10.9	-6.8
18	CC(=O)NCC(=O)Nc1ccc(Br)cc1C(=O)c1ccccc1	-0.5	0.6	-4.9	2.0	-2.2	-0.7	-25.0	-7.3
19	Cn1c(O)c(C2=NN(C(=O)CCl)C(c3ccccc3)C2)c(=O)n(C)c1=O (configuration not stated)	6.6	-1.7	3.0	-0.1	2.8	0.2	4.6	-0.7
20	FC(F)(F)c1ccc2c(c1)N(CCCN1CCN(CCCl)CC1)c1ccccc1S2	-1.3	-0.1	-10.4	1.8	68.3*	-5.2	29.5	3.9
21	Cc1ccccc1CC(=O)N(CCN(C)C)CC1CCCN(Cc2ccccc2F)C1 (configuration not stated)	-1.2	0.3	-3.6	-0.7	0.2	2.8	22.9	·
22	CC(C)CN1CCN(Cc2ccccc2C(F)(F)F)CC1CCO (configuration not stated)	3.0	0.3	-0.5	-1.5	1.4	-5.6	-3.1	0.9
23	CCOC(=O)C1(CCc2ccccc2)CCN(Cc2csc(C(C)=O)c2)CC1	3.0	-0.5	-6.6	0.8	1.4	-3.5	-7.5	0.1
24	Cc1nc2c(c(C)nn2-c2ccccc2)c(C)c1CCC(=O)N1CCC2(CC1)OCCO2	-9.5	0.3	-4.8	3.4	-0.5	-0.6	-3.9	0.4
25	CCCC(=O)NC(Oc1ccccc1Cl)C(Cl)(Cl)Cl (configuration not stated)	2.5	-0.5	10.2	0.6	8.6	14.7	8.6	-7.2
26	CC1CN(c2ccc([N+](=O)[O-])c3cccnc23)CC(C)N1 (configuration not stated)	-0.2	-0.6	5.6	0.2	3.4	7.1	9.6	-0.6
27	COc1ccc(C(CNC(=O)CCc2ccsc2)N(C)C)cc1 (configuration not stated)	2.2	0.5	-0.7	-3.0	-4.1	1.4	-12.0	-3.4
28	C=CCn1c(O)c(C(C)=NCCN2CCCCC2)c(=O)[nH]c1=O	3.8	0.2	-0.9	-2.2	2.7	-1.1	-20.0	-4.2
29	O=c1[nH]c(=O)n(Cc2ccccc2)c(O)c1/C=N/NCCO	0.1	0.4	2.3	4.3	10.2	3.6	-8.3	-0.2
30	CN(C)CC#CCOCCOCCC#N	-0.3	1.8	1.1	-1.6	-2.5	-2.3	-7.0	-5.4

# Next results follow.
no.	SMILES	UCH37 DUB inh	Bfl-1 A1 inh	Calb FLC	RanGTP-Imp inh	B2AR ag	LANA-H2A inh	T cruzi inh	Beta cell apopt
31	COC(=O)C1=C(c2ccc(F)cc2OCc2ccccc2)C[C@@H]2CC[C@H]1N2C(=O)NCc1ccc(F)cc1	1.3	0.3	·	·	-1.9	-5.3	·	3.4
32	COc1ccccc1N1C(=O)NC(=O)C2(Cc3cc(C)ccc3N(C)C2)C1=O (configuration not stated)	2.4	0.1	6.1	7.2	1.9	-1.1	7.4	4.7
33	C/C(CCc1c[nH]c2ccccc12)=N\O	·	0.1	6.0	-1.4	-3.1	0.3	-14.7	-0.5
34	CC1(C)C(c2ccccc2)=NC(c2cccnc2)N1O (configuration not stated)	0.2	1.2	-24.9	-7.3	10.5	3.5	-16.1	-7.5
35	CCCC(CCC)C(=O)OC[N+](C)(C)CCOC(=O)C(O)(c1ccccc1)C1CCCC1 (configuration not stated)	6.2	1.0	48.1	?	4.0	1.1	55.0*	-3.7
36	O=C1NC(=O)C(CCc2ccncc2)(CCc2ccncc2)C(=O)N1CCc1ccccc1	1.3	0.0	?	-0.8	-1.1	-1.7	-8.8	-1.6
37	CCOC(=O)c1ccc2[nH]c(-c3ccc(S(=O)(=O)F)cc3)cc(=O)c2c1	·	-0.7	·	-2.8	6.6	-0.2	-2.8	0.9
38	CCCCn1c(O)c(C(C)=NCc2ccc3c(c2)OCO3)c(=O)[nH]c1=O	5.9	0.2	5.4	-2.8	1.3	-1.5	-1.6	-5.6
39	C[N+]1(C)C2CC(OC(=O)C(CO)c3ccccc3)CC1C1OC12 (configuration not stated)	2.3	0.1	·	·	0.0	-0.1	·	-0.7
40	O=C(COc1ccc(Br)cc1)N1CCN(Cc2ccc3c(c2)OCO3)CC1	3.3	0.6	4.8	2.1	-5.5	-0.5	8.6	0.9
41	CCCCNc1ccncc1S(=O)(=O)NC(=O)NC(C)C	1.3	-0.1	-1.8	4.2	5.9	-2.8	1.4	-6.7
42	CCC(=O)c1c(O)n(C2CCCCCC2)c(=O)[nH]c1=O	1.1	0.6	18.4	-0.6	-1.2	2.7	-8.3	-0.5
43	COc1ccc(CCn2c(O)c(C=NCc3cccnc3)c(=O)[nH]c2=O)cc1OC	4.2	0.0	10.1	0.8	-4.0	-2.6	-5.2	0.3
44	CC1CCN(C(=O)CCl)CC1	-0.9	-0.4	?	2.5	-1.1	7.8	-14.1	-3.1
45	O=c1[nH]c(=S)n(Cc2ccc(F)cc2)c(O)c1C=NCc1cccnc1	1.5	0.0	-14.5	?	-0.5	-5.8	-1.2	-14.0
46	O=C(N/N=C/c1c(O)n(Cc2ccc(F)cc2)c(=S)[nH]c1=O)c1ccncc1	-46.8	-0.4	-1.1	10.3	2.9	6.1	-11.2	-10.0
47	O=[N+]([O-])c1cccc2c([N+](=O)[O-])cccc12	2.6	0.3	·	·	-1.7	2.2	·	3.7
48	c1ccc(C2NCCc3[nH]cnc32)cc1 (configuration not stated)	-0.9	0.6	-2.3	1.0	-4.8	-3.6	4.2	-2.8
49	O=C1NC(=O)C2(Cc3ccccc3N3CCOCC32)C(=O)N1c1ccccc1 (configuration not stated)	1.7	-0.5	?	-0.3	2.0	0.2	3.1	-0.4
50	Cc1ccc(S(=O)(=O)N2CCN(C(=O)COC(=O)Cc3ccccc3)CC2)c(C)c1	1.1	0.2	10.5	1.0	-6.2	4.5	-15.3	-2.7
51	COc1ccc(-n2nc(C(=O)NCC(=O)N3CCC4(CC3)OCCO4)c3ccccc3c2=O)cc1	1.5	0.4	6.9	0.8	-0.5	-0.9	-3.3	1.2
52	Cc1nc(N2CCN(Cc3ccc4c(c3)OCO4)CC2)[nH]c(=O)c1C	0.4	·	1.9	?	23.1	·	1.1	·
53	O=C(c1ccncc1)C12CN3CN(CN(C3)C1)C2	1.3	0.8	-2.0	-0.8	3.1	2.1	-1.8	-4.4
54	CCOc1ccc(N=Cc2c(O)n(Cc3ccccc3)c(=S)[nH]c2=O)cc1	-22.9	-1.0	-0.7	-7.0	11.1	0.8	13.6	-5.6
55	COc1ccc(OC)c(CC(=O)O)c1	-1.5	0.3	-2.6	4.1	-6.7	2.6	7.8	-6.9
56	O=c1[nH]c(=O)n(-c2cccc(Cl)c2)c(O)c1C=NCCCN1CCOCC1	2.3	0.9	-8.2	7.3	0.4	2.1	-22.0	4.6
57	C=CCN(CC#CCOc1ccccc1OC)CC=C	4.2	0.2	-6.2	3.3	·	4.8	-9.2	-1.4
58	C=CCn1c(O)c(/C=N/N2CCCCC2)c(=O)[nH]c1=O	7.9	-0.4	5.9	0.7	-5.4	-2.0	-9.6	-1.2
59	CCN(CC)c1ccc(N=Cc2c(O)n(CCC3=CCCCC3)c(=O)[nH]c2=O)cc1	-3.6	0.3	-5.1	-13.7	-30.5	-0.6	27.8	-1.6
60	CN1CCN(Cc2ccccc2Sc2ccccc2)CC1	2.7	-1.3	-19.0	-2.0	5.1	3.2	34.7	-0.1

# The listing continues:
no.	SMILES	UCH37 DUB inh	Bfl-1 A1 inh	Calb FLC	RanGTP-Imp inh	B2AR ag	LANA-H2A inh	T cruzi inh	Beta cell apopt
61	COC(=O)C1=C(c2cccc(C#N)c2)C[C@@H]2CC[C@H]1N2C(=O)NCCO	2.9	-0.4	·	·	-1.8	-2.3	·	-1.6
62	COc1ccc(NC(=S)NC(NC(=O)CF)C(Cl)(Cl)Cl)cc1[N+](=O)[O-] (configuration not stated)	3.6	-0.1	7.7	-0.4	-3.0	3.5	10.9	0.9
63	O=[N+]([O-])c1cccc(O)c1	3.2	-0.1	·	·	-3.1	-9.7	·	5.3
64	CCC(CC)NCc1c[nH]c2ccccc12	1.7	2.2	-7.9	0.7	0.2	-1.9	31.6	54.8

# Only part of the results is shown; the hit share may differ from the screen's.
